Screens (PubChem)
Vaccinia mCherry: inhibitors of vaccinia virus infection (mCherry reporter signal) | Vaccinia virus mCherry reporter infection, fluorescence; about a quarter of the inactives have no number | Potency, µM (doses to about 36.5 µM), for the others: at the top dose activity change, negative = inhibition, actives largely listed as inhibitors | 0.63% of 310,000 active; active = well fitted inhibition curve with a large enough effect; inconclusive = small, poorly fitted or top-dose-only effect; inactive = no such curve, though single readings can be large or run the other way; tested in A549 cells; also: nearly all actives have a fitted effect of over 35% in size; inactives centre near -10
VACV Venus inh: inhibitors of vaccinia virus (Venus reporter) | Vaccinia virus Venus reporter expression, fluorescence | Potency, µM (doses to about 36.5 µM), for the others: at the top dose activity change, negative = inhibition, most hits filed as inhibitors | 0.46% of 330,000 active | AID 720580; active means well fitted inhibition curve with a large enough effect; inconclusive means small, poorly fitted or top-dose-only effect; inactive means no such curve, though single readings can be large or run the other way; tested in A549 cells; also: nearly all actives have a fitted effect of over 30% in size; inactives centre near -10
The depositor's hits bear a star; i = inactive; ? = inconclusive; · = no result given; & = joins results of further samples; [ ] = remark or other dose. % is scaled to controls: 0 for no effect and ±100 for the full control effect; potency is read from the fitted curve at half-maximal effect. The order is random; 0.87% or so of the library scored in one or more.

The opening 4 compounds (preview)
SMILES	Vaccinia mCherry	VACV Venus inh
Cc1ccc(S(=O)(=O)N[C@H](C(=O)N2CCC(C(=O)N[C@@H](CCC(N)=O)C(=O)O)CC2)C(C)C)cc1	4.5%	1.3%
COCC(=O)Nc1cc([N+](=O)[O-])ccc1C	-8.3%	-19.2%
COc1ccc(S(=O)(=O)N2CCN(C(=O)NCc3ccccc3)CC2)cc1	·	-14.5%
CCN(CCCNc1cc2c(c(N)c1S(=O)(=O)O)C(=O)c1ccccc1C2=O)c1ccccc1	-5.9%	-3.3%

All compounds of this part (from the top)
SMILES	Vaccinia mCherry	VACV Venus inh
Cc1ccc(S(=O)(=O)N[C@H](C(=O)N2CCC(C(=O)N[C@@H](CCC(N)=O)C(=O)O)CC2)C(C)C)cc1	4.5%	1.3%
COCC(=O)Nc1cc([N+](=O)[O-])ccc1C	-8.3%	-19.2%
COc1ccc(S(=O)(=O)N2CCN(C(=O)NCc3ccccc3)CC2)cc1	·	-14.5%
CCN(CCCNc1cc2c(c(N)c1S(=O)(=O)O)C(=O)c1ccccc1C2=O)c1ccccc1	-5.9%	-3.3%
COc1ccc(NC(=O)COC(=O)CCOc2ccccc2C)cc1Cl	-23.5%	-4.9%
COc1c(N2CCN[C@H](C)C2)c(F)cc2c(=O)c(C(=O)O)cn(C3CC3)c12	-6.1%	-7.0%
CCOCCc1nnc(NC(=O)C(=O)c2cc(C)n(-c3ccc(Cl)cc3)c2C)s1	-6.3%	5.2%
CN(CC(=O)NCc1ccc(F)cc1)Cc1cccc(Cl)c1	-21.0%	-11.0%
CCc1ccc(C(=O)c2cn(CC(=O)Nc3ccc(C)c(C)c3)c3ccccc3c2=O)cc1	-20.6%	?
O=[N+]([O-])c1ccc(O)c(C=Nc2ccc3c(c2)OCCO3)c1	-7.2%	-8.6%
COc1cc(NC(=O)N2CCc3nc(Nc4cc(Cl)cc(Cl)c4)ncc3C2)cc(OC)c1OC	?	?
CCCCCCCCCC(=O)N[C@H](CN1CCOCC1)[C@H](O)c1ccccc1	-19.8%	-18.3%
C=CCNC(=O)c1sc(SC)cc1-c1ccc(Cl)cc1	·	-14.0%
CCc1ccccc1N(C)C(=O)C1CCCN(c2ncnc3onc(-c4ccc(F)cc4)c23)C1 (centres undefined)	-13.1%	-8.9%
CCOC(=O)/C(C#N)=C/c1ccc(OC(=O)c2ccccn2)cc1	-12.6%	-2.5%
C=C(C)C(=O)OC1(C(F)(F)F)Oc2cc(C)ccc2NC1=O (centres undefined)	-22.6%	-16.5%
COc1ccc(NS(=O)(=O)c2ccc3c(c2)CCN3C(=O)CCC(=O)O)cc1Cl	-2.1%	0.0%
CCOc1ccc(C(=O)N2CCSC2=S)cc1	-26.2%	-21.6%
CCOc1ccc(CNc2ccc3c(c2)ncn3C)cc1	-4.8%	-8.0%
Cn1cc([N+](=O)[O-])c(C(=O)Nc2ccc3c(c2)OCCO3)n1	-5.4%	-13.8%
Cc1cccc(NC(=O)CCNC(=O)c2ccc(Br)cc2)c1C	i	-21.6%
CNC(=O)NC(=S)NC(=O)c1cccc(Cl)c1	-15.0%	0.5%
COc1cc2c(C(=O)N3CCN(C4CCCCC4)CC3)cn(CC(C)C)c(=O)c2cc1OC	?	-25.8%
O=C(Nc1ccc2c(c1)OCO2)c1cc(C2CCCCN2C(=O)OCCF)on1 (centres undefined)	-8.1%	0.5%
O=C(CNC(=O)c1ccco1)NCC(=O)OC(C(=O)c1ccccc1)c1ccc(Cl)cc1 (centres undefined)	-11.6%	-18.7%

The results go on.
SMILES	Vaccinia mCherry	VACV Venus inh
COc1ccc(/C=C2/SC(=S)N(NS(=O)(=O)c3ccc(C)cc3)C2=O)cc1	-29.9%	8.3%
COc1ccccc1OCCn1c(-c2ccc(Cl)cc2)nc2ccccc2c1=O	-3.0%	-5.4%
O=C(NCc1ccccc1)C(c1ccc(O)cc1)N(C(=O)Cn1nnc(-c2cccs2)n1)c1ccc2c(c1)OCCO2 (centres undefined)	-25.0%	0.0%
O=C(COc1ccccc1)NCC(c1ccco1)N1CCN(c2ccccc2)CC1 (centres undefined)	i	-10.6%
O=C(COC(=O)C1CCN(S(=O)(=O)c2ccccc2C(F)(F)F)CC1)NCc1ccc(F)cc1	i	-6.2%
O=C(NC(=S)Nc1ccccc1Br)c1ccc2c(c1)OCO2	i	-2.5%
CC(C)CCOc1ccccc1Cn1c(=O)sc2ccccc21	-8.5%	0.4%
O=C(Nc1ccccc1O)c1cc(S(=O)(=O)N2CCCC2)ccc1Cl	-13.0%	-4.1%
COc1ccc(Cn2c(CO)cnc2SCc2ccc(C)cc2)cc1	-2.6%	-7.3%
N#Cc1cccnc1N1CCN(C(=O)c2cccc3c2C(=O)c2ccc(Cl)cc2S3(=O)=O)CC1	i	-9.0%
Cc1ccc(Cl)cc1N1CCN(C(=O)C2CCN(S(=O)(=O)c3c(C)nn(C)c3C)CC2)CC1	-8.7%	-24.5%
CCC1(c2ccccc2)NC(=O)N(CC(=O)NNC(=O)c2ccoc2C)C1=O (centres undefined)	-14.0%	-7.6%
CC(C)C[C@H](NC(=O)c1[nH]cnc1C(=O)N[C@@H](C)C(=O)OC(C)(C)C)C(=O)OCc1ccccc1	?	-29.2%
CCNC(=S)NCCN1CCCCC1	·	-2.9%
CCOc1cc(C(=S)N2CCOCC2)ccc1OS(=O)(=O)c1ccccc1	i	-16.3%
O=C(Nc1ccn(-c2ccccc2)n1)c1ccc(S(=O)(=O)N2CCCCCC2)cc1	-20.7%	-13.0%
O=C(CNC(=O)N1CC(=O)Nc2ccccc21)NCCCc1ccccc1	i	-8.1%
O=c1c(=O)n(CCO)n(CCO)c(=O)n1CCO	-12.7%	-13.9%
O=C(NCCCNC(=O)c1cc(Cl)ccc1Cl)c1cnccn1	-14.6%	8.6%
Cc1cc2nccc(-c3ccc(Cl)c([N+](=O)[O-])c3)n2n1	?	-8.7%
CC1CCc2onc(C(=O)NCc3ccco3)c2C1 (centres undefined)	-14.9%	-10.9%
O=C(NNC(=S)NCc1ccco1)C(c1ccccc1)c1ccccc1	-10.3%	-8.9%
CCOC(=O)C1CCN(C(=O)CCS(=O)(=O)Cc2ccccc2)CC1	17.4%	3.6%
COc1ccc(C)cc1Nc1c2c(nc3ccccc13)CCC2	?	-19.2%&-18.2%
Brc1ccc(-c2nc3ccccn3c2Nc2ccc3c(c2)OCCO3)o1	-23.1%	-12.0%

Next results.
SMILES	Vaccinia mCherry	VACV Venus inh
O=C(CSCc1cc(=O)c2ccccc2[nH]1)Nc1cccc(C(F)(F)F)c1	-4.9%	-9.4%
Cc1ccccc1Nc1nn2c(=O)c3ccc(C(=O)N4CCCC(C)C4)cc3nc2s1 (centres undefined)	-14.6%	-8.7%&-14.4%
Cc1ccccc1S(=O)(=O)NC(=O)C1(C)CCN1C(=O)CC(c1ccccc1)c1ccccc1 (centres undefined)	33.1%[activator]	4.4%
O=C(C1=C[C@H](c2csc3ccccc23)C[C@H](OCc2ccc(CO)cc2)O1)N1CCCCCCC1	-10.1%	-26.4%
CN(C(=O)c1coc(=O)c2ccccc12)c1ccc(F)cc1	i	-6.1%
O=C(O)CC(c1ccccc1)n1cccc1 (centres undefined)	-0.3%	-11.9%
Cc1ccc(-n2nc3c(c2NC(=O)c2ccco2)CS(=O)(=O)C3)cc1C	i	-6.2%
Cc1cccc(OCCC(=O)OC(C)C(=O)Nc2ccc(Cl)cn2)c1 (centres undefined)	-1.3%	-13.5%
Cc1ccc(NC(=O)CCN2C(=O)C3C4CCC(C4)C3C2=O)cc1Cl (centres undefined)	i	-11.8%
O=C(C1CCC1)N1CCN(Cc2ccccc2)CC1	-9.0%	-18.3%
COc1ccccc1Oc1ccc(Oc2ccccc2OC)cc1	?	4.2%
Nc1nonc1-n1nnc(C(=O)N/N=C/c2cccs2)c1-c1ccc2c(c1)OCO2	-10.0%	-6.0%
Cc1cc(C)c(Cn2c(=O)n(CCCC(=O)NCc3ccco3)c(=O)c3ccccc32)c(C)c1	·	-9.8%
NC(=O)COC(=O)c1ccccc1Oc1ccccc1	-21.6%	-11.1%
Cn1c(O)c(N=Nc2nc(-c3ccccc3)cs2)c2ccccc21	-15.4%	-10.8%
O=C(NCc1cccc(F)c1)C1CCC(=O)N(CC2CCCCC2)C1 (centres undefined)	i	-15.6%
Cc1c(NC(=O)c2ccc(-c3ccc([N+](=O)[O-])cc3Cl)o2)c(=O)n(-c2ccccc2)n1C	-16.4%	-17.4%
COc1ccc(CNC(=O)COC(=O)CCc2nc3ccccc3c(=O)[nH]2)cc1	0.3%	-9.0%
Nc1cc(C(=O)N2CCCC2)cc(C(=O)N2CCCC2)c1	-14.9%	-7.2%
COc1ccc(/C=C2\CCCC3C2=NN(C(=O)CSc2ncn[nH]2)C3c2ccc(OC)cc2)cc1 (centres undefined)	?	?
Cc1noc(C)c1NC(=O)Nc1cccc2c1O[C@H](CN(C)C(=O)NC(C)C)[C@@H](C)CN([C@H](C)CO)C2=O	i	-2.8%
O=C(CC(=O)N/N=C/c1ccc(Cl)cc1Cl)NCc1ccccc1	·	-2.3%
COc1ccc2cc(C)c(SCC(=O)Nc3cc(C)on3)nc2c1	i	-6.9%
O=C(CCc1ccccc1)NNC(=O)Nc1ccccc1	i	-7.7%
CC(C)OC1(c2ccccc2)OC(=O)c2ccccc21 (centres undefined)	i[7.34 µM]	3.8%[7.34 µM]

Brought forward from above: two entries, then new ones.
SMILES	Vaccinia mCherry	VACV Venus inh
O=C(CCc1ccccc1)NNC(=O)Nc1ccccc1	i	-7.7%
CC(C)OC1(c2ccccc2)OC(=O)c2ccccc21 (centres undefined)	i[7.34 µM]	3.8%[7.34 µM]
Cc1ccc(C)n1NC(=O)c1ccco1	·	-3.9%
O=C(Cc1c[nH]c2ccccc12)N1CCc2ccccc21	-26.4%	-12.2%
CCC(=O)Nc1ccccc1-c1nc2ccccc2n(C(C)C(=O)Nc2cccc(Cl)c2C)c1=O (centres undefined)	i	-15.1%
Cc1cccc(OCCC(=O)Nc2ccc(S(=O)(=O)N3CCCC3)cc2)c1	·	-29.0%
O=C(NCc1ccc(Cl)nc1)c1ccc2nc([C@@H]3O[C@H](CO)[C@H](O)[C@H](O)[C@H]3O)[nH]c2c1	18.2%	0.9%
COc1ccc(OC)c(S(=O)(=O)Nc2cccc3ccccc23)c1	-14.0%	-11.1%
CCN1C(=O)[C@H]2[C@@H](c3ccc(-c4ccc5c(c4)OCO5)c(OC)c3)N[C@@](CC(C)C)(C(=O)OC)[C@H]2C1=O	-15.4%	?
COc1ccccc1N1CCN(CC(O)COc2ccc3c(C)cc(=O)oc3c2)CC1 (centres undefined)	i	-12.7%
COc1cc(OC)cc(C(=O)NCC(=O)OCC(=O)/C=C2/N(C)c3ccccc3C2(C)C)c1	i	10.5%
CN1C2C=C3C(C#N)=C(N)C(C#N)(C#N)[C@@H](c4ccsc4)[C@@H]3C1CC2 (some centres undefined)	-5.8%	0.0%
Cc1ccc2c(C)[nH]c(=O)cc2c1	·	-22.9%
Cc1ccc(C(C)C)cc2c(C)ccc1-2	i	-14.0%&0.0%
Cc1onc(-c2ccccc2)c1C(=O)N1CCN(S(=O)(=O)c2ccc(OC(F)(F)F)cc2)CC1	-9.1%	9.1%
Clc1ccc(C[n+]2cc(-c3ccc(Cl)cc3)n3c2CCC3)cc1	-9.8%	-1.7%
Cc1cccc(N2CCN(C(=O)C(Cc3ccccc3)n3cccc3)CC2)c1C (centres undefined)	-29.2%	?
Cc1cccc(N(C)c2nc3ccccc3c3nnc(C)n23)c1	-11.3%	-2.7%
CCCCNC(=O)C(NC(=O)Cc1cc(OC)cc(OC)c1)C(=O)c1ccccc1 (centres undefined)	-9.9%	-5.7%
COc1cc(N/N=C(\C)c2ccc(O)c(C)c2)nc(-c2ccccc2)n1	?	-19.7%
COc1ccc(-c2cc(NC(C)=O)c3ncc(-c4ccc(F)cc4)n3c2)cc1OC	35.2%[activator]	14.2%
CCC(=O)OC1(Cc2ccc(CC)cc2)CC(C)N(C)CC1C (centres undefined)	i	-21.9%
CCc1ccc(NC2=NC(C(=O)c3ccccc3)CC(=O)N2)cc1 (centres undefined)	·	-24.3%
O=C(CSc1nc2ccccc2o1)NCc1n[nH]c(=O)c2ccccc12	-24.0%	-8.0%
CC(C)CCNC(=O)c1cc2cc(S(=O)(=O)N3CCCCC3)ccc2n1C	-11.6%	-15.0%
Cc1cccc2cn[nH]c12	-11.8%	-0.5%
CCCc1nc2ccc(C(=O)OC)cn2c1Cc1ccccc1C(F)(F)F	13.6%	2.7%

(list continues)
SMILES	Vaccinia mCherry	VACV Venus inh
CC(C)c1ccccc1NC1=NCCCS1	?	3.5%
CNC(=O)Nc1ccc2snnc2c1	i	-8.5%
COc1cccc(NC(=S)Nc2cccnc2)c1	i	-7.7%
COc1cccc(OC)c1C(=O)Nc1ccc(C(=O)NCc2ccccc2)cc1	-29.4%	?
CCOc1ccc(C2C(C(=O)c3ccc(C)o3)=C(O)C(=O)N2c2cc(C)on2)cc1OC (centres undefined)	-20.6%	-14.7%
COc1ccc(CCNC(=O)c2c(Nc3ccccc3C)sc(C(=O)c3ccccc3)c2N)cc1OC	-24.6%	-15.7%
CCOC(=O)c1cc(-c2ccccc2)n(CCCC(=O)Nc2ccc(C)cc2Cl)c1C	?	?
CCOC(=O)C1CCN(S(=O)(=O)c2cn(C)c(C)n2)CC1	-12.8%	1.4%
Cn1c(=O)c2c(nc(SCC(=O)N3c4ccccc4CCc4ccccc43)n2C)n(C)c1=O	-25.8%	-9.9%
CCCCOc1ccc(N2CC(C(=O)NCc3ccco3)CC2=O)cc1 (centres undefined)	-18.5%	-0.8%
Cc1ccc(CN2CCNC(=O)C2CC(=O)N(C)C2CCOCC2)cc1 (centres undefined)	-15.5%	-10.4%
O=C(O)C1CCN(C(=O)Cc2ccccc2)CC1	-1.1%	-0.3%
